Screening results: PubChem BioAssay, ICCB-Longwood Screening Facility, Harvard Medical School
Choline anaer gr – growth inhibitors of anaerobic choline-fed gram-negatives, minimal medium, absorbance; Gram-negative bacterium anaerobic choline minimal medium; stronger effect = lower value; many inactives read as strong as hits in the columns shown; hit rate 0.2% among 55,000; calls only;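 active = growth z-score on choline under -2 at 7 or 20 h with little or no fall on glycerol, limits in tiers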;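 note: stock transfer was 300 nL into about 50 µL; the organism is E. coli; final concentration not given here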
Choline anaer gr early – also measured in Choline anaer gr; calls as there; z-score; measured here: choline growth z-score, timepoint 1;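 score of optical density at 7 h as mean of two plates; lower means less growth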
The depositor's hits bear a star; i = inactive; + = active, no number; & = joins results of further samples.

SMILES | Choline anaer gr | Choline anaer gr early
COc1ccc(CNC(=O)CSc2nccc3c2ccn3Cc2ccc(F)cc2)cc1OC | i | 1.3
O=C(NCc1ccc2c(c1)OCO2)c1cc(-c2cccnc2)nc2ccc(Br)cc12 | i | 0.72
COc1ccc(S(=O)(=O)N2CCC[C@@H]2C(=O)NCc2csc(C)n2)cc1 | i | -0.11
Cc1nn(-c2ccc3nncn3n2)c(C)c1CCC(=O)N1CCC(Cc2ccccc2)CC1 | i | 0.11
COc1cc(OC)c(NC(=O)CSc2nccnc2N2CCSCC2)cc1Cl | i | -0.44
COCCNC(=O)Cc1ccc(-n2c(=O)c3ccccc3n(CC(=O)NCCc3ccccc3)c2=O)cc1 | i | -2.7
O=C(NCCC1=CCCCC1)C1CCN(c2ccc3nncn3n2)CC1 | i | -0.25
CC1CCN(S(=O)(=O)c2ccc3c(c2)N(CC(=O)NC(C)C)C(=O)CC(C)S3)CC1 (stereo unspecified) | i | 1.1
CN(C)S(=O)(=O)c1ccc2c(c1)N(CC(=O)Nc1ccccc1Cl)C(=O)C1CCCCN21 (stereo unspecified) | i | -0.35
COc1ccc(-c2csc(Nc3ccc(Br)cn3)n2)cc1 | i | 0.67
COc1ccc(CC(=O)NCc2csc(C)n2)cc1 | i | 0.59
Cc1c(-c2nnc(C(=O)NCCN3CCc4ccccc4C3)o2)oc2ccccc12 | i | -0.33
COc1ccccc1-c1noc(-c2cnn3c(C)c(Cc4ccccc4C)c(C)nc23)n1 | i | -0.34
Cc1cc(C(=O)NCCCc2ccccc2)c2ccccc2n1 | i | 0.22
Cc1ccc(Cl)cc1NC(=O)C1CCN(S(=O)(=O)c2cc3c(cc2C)NC(=O)CO3)CC1 | i | -0.2
COc1cc(OC)cc(C(=O)Nc2nc(CC(=O)NCCc3ccc(OC)c(OC)c3)cs2)c1 | i | 0.38
CC(=O)Nc1ccc(NC(=O)C2CCCN(S(=O)(=O)c3cc(-c4noc(C)n4)sc3C)C2)cc1 (stereo unspecified) | i | -0.09
Cc1cc2[nH]c(=O)[nH]c2cc1NS(=O)(=O)c1ccc(F)cc1 | i | -0.16
Cc1cc(C)cc(N2C(=O)N(Cc3cccc(Cl)c3)C3CS(=O)(=O)CC32)c1 (stereo unspecified) | i | -0.44
O=C(Nc1cccc(F)c1)N1CCN(Cc2cc(=O)n3nc(-c4ccccc4F)sc3n2)CC1 | i | 1.2
CCC(=O)N1CCc2sc(C(=O)NC3CC3)cc2C1 | i | 0.68
Cc1ccc(N2C(=O)Cn3cccc3C2C(=O)NC2CCCC2)cc1 (stereo unspecified) | i | -1.3
Cc1ccccc1N1CCN(c2nccn3nc(-c4ccccc4)cc23)CC1 | i | -0.34
Cc1ccc2c(=O)c(C(=O)O)c[nH]c2n1 | i | -0.82
COc1ccc(Cl)cc1NC(=O)Cn1cnc2oc(C)c(C)c2c1=O | i | 0.13
CCCS(=O)(=O)c1ncc(Cl)c(C(=O)Nc2sc3c(c2C(N)=O)CCCC3)n1 | i | -0.63
CC(=O)Nc1ccc(OC(C)=O)cc1 | i | -0.03
CCCn1c(=O)c2ccccc2n2c(=O)n(CC(=O)c3cccc(Cl)c3)nc12 | i | -0.19
COc1ccc(-c2noc(Cn3c(=O)n(-c4cc(F)ccc4F)c(=O)c4ccccc43)n2)cc1OC | i | 0.91
COc1cccc(-c2csc(-c3nnn(-c4ccc(C)cc4)c3N)n2)c1 | i | 0.84
Cc1cc(C)c(NC(=O)COc2cccc3c(=O)n(C)ccc23)c(C)c1 | i | 0.94
Cc1ccccc1CSc1nc2c(c(=O)[nH]1)C(c1ccc(O)c(O)c1)CC(=O)N2 (stereo unspecified) | i | 0.55
NC(=O)c1cccn1Cc1ccc(F)cc1 | i | -1.5
CC(C)[C@H](NC(=O)NCCc1c[nH]c2ccccc12)C(=O)O | i | 0.53
CCCCC(=O)Nc1ccc(N(CC)CCN(C)C)c(C(=O)O)c1 | i | -0.57
Cc1ccc(NC(=O)c2nnc(CSCC(=O)NCc3ccccn3)s2)cc1 | i | 0.22

Compounds from the list above with a furan ring, fused or not, in the order listed:
SMILES | Choline anaer gr | Choline anaer gr early
Cc1c(-c2nnc(C(=O)NCCN3CCc4ccccc4C3)o2)oc2ccccc12 | i | -0.33
COc1ccc(Cl)cc1NC(=O)Cn1cnc2oc(C)c(C)c2c1=O | i | 0.13

Next part:
SMILES | Choline anaer gr | Choline anaer gr early
Cc1cc(C)cc(-n2ncc3c(N4CCN(CCO)CC4)ncnc32)c1 | i | 1.2
Cc1ccc(-c2nn(C(C)C(=O)N3CCc4ccccc43)c(=O)c3c2CCCC3)cc1 (stereo unspecified) | i | -1.1
Cc1cccc(C)c1Nc1c(-c2cc(Br)ccc2O)nc2nc[nH]n12 | i | -1.5
O=C1c2ccncc2C(=O)N1Cc1ccccc1F | i | -0.22
Cn1nc(-c2nc(C3CC3)no2)c2c1CCN(C(=O)c1ccc(Cl)s1)C2 | i | -1.3
Nc1ccn([C@@H]2O[C@H](CO)[C@@H](O)C2O)c(=O)n1 (stereo partly specified) | i | -0.28&0.14
Cc1noc2c1C(c1ccc(Br)cc1)C1=C(CC(C)(C)CC1=O)N2 (stereo unspecified) | i | 0.36
Cc1cccc(OCC(=O)Nc2ccccc2-c2ccc3cc(C)ccc3n2)c1 | i | 0.79
O=S(=O)(c1ccc(F)c(F)c1)N1CCC(c2noc(-c3ccccc3)n2)CC1 | i | -0.99
COc1cccc(NC(=O)c2cn(-c3cc(-c4noc(C)n4)ccc3C)nc2C)c1 | i | 0.67
CCc1cc(=O)oc2cc(C)c3c(c12)OC(c1ccc(OC)c(O)c1)CC3=O (stereo unspecified) | i | 0.71
O=C(CN1N=C(c2ccccc2F)c2cc(Cl)ccc2S1(=O)=O)NC1CCCC1 | i | 0.2
CO/N=C(\C(=O)N[C@@H]1C(=O)N2C(C(=O)[O-])=C(C[N+]3(C)CCCC3)CS[C@H]12)c1csc(N)n1 | + | -3.9*
CCn1c(=O)c(-c2noc(CCC(=O)Nc3ccc(C)c(F)c3)n2)nn(-c2ccccc2)c1=O | i | -0.58
COc1cc2nc(NC(=O)c3ccc4c(c3)OCCO4)sc2cc1OC | i | 2.4
CCn1c(=O)c(-c2noc(CCC(=O)Nc3ccccc3OC)n2)nn(-c2ccccc2)c1=O | i | -2.1
Cc1cccc(N2CCN(C(=O)CCCn3c(=O)[nH]c4ccc(Br)cc4c3=O)CC2)c1C | i | 0.96
COc1cccc(CN=C2Nc3ccccc3NC23CCCCCC3)c1 | i | -0.83
O=C(c1cn2c(n1)COCC2)N1CCC2(CC1)OCCO2 | i | 1.5
CCOC(=O)CCNC(=O)N1CCCC1c1cc(C(C)C)on1 (stereo unspecified) | i | 0.64
O=C(NC1CCCCC1)C1CCCN(S(=O)(=O)c2cc(-c3noc(C4CCCC4)n3)cs2)C1 (stereo unspecified) | i | -0.25
Cn1c(=O)c(-c2noc(CCC(=O)Nc3ccccc3F)n2)nn(-c2ccccc2)c1=O | i | 0.69
Cc1ccccc1NC(=O)c1ccc2c(c1)nnn2C | i | -2.4
O=C(Cn1nc2c3sccc3ncn2c1=O)Nc1ccccc1 | i | -0.16

Continued, starting with the last 3 of the part before.
SMILES | Choline anaer gr | Choline anaer gr early
Cn1c(=O)c(-c2noc(CCC(=O)Nc3ccccc3F)n2)nn(-c2ccccc2)c1=O | i | 0.69
Cc1ccccc1NC(=O)c1ccc2c(c1)nnn2C | i | -2.4
O=C(Cn1nc2c3sccc3ncn2c1=O)Nc1ccccc1 | i | -0.16
CCc1nc(-c2cc(S(N)(=O)=O)ccc2OC)no1 | i | 0.7
O=C(NCCc1ccc(Cl)cc1)C1CCN(c2ncnc3c2oc2ccccc23)CC1 | i | -0.25
Cc1nc(-c2cccc(S(=O)(=O)Nc3cccnc3)c2)no1 | i | -0.18
O=S(=O)(c1cc(-c2nnc(C3CC3)o2)co1)N1CCC(Cc2ccccc2)CC1 | i | 1.1
O=C(NCc1ccco1)C1CCN(c2cnc(N3CCCC3)nc2)CC1 | i | 0.47
COC(=O)c1ccccc1NC(=O)N1CCN(Cc2cc(=O)n3nc(-c4ccccc4)sc3n2)CC1 | i | 0.41
O=C(NCC(O)CO)c1c(I)c(C(=O)NCC(O)CO)c(I)c(N(CCO)C(=O)CO)c1I (stereo unspecified) | i | 0.22
Cc1ccc(-c2noc(CCC(=O)NC3CCCC3)n2)c(=O)n1C(C)C | i | -0.72
CN(CCCNC(=O)c1c2c(nc3ccccc13)C(=O)N(C1CCCCC1)C2)C1CCCCC1 | i | -0.66
COC(=O)c1ccc2c(=O)n(Cc3ccc(C)cc3)c(N3CCSC3)nc2c1 | i | 1.1
Cc1ccc(O)c(N=Nc2ccccc2)n1 | i | -1.5&-1.3
NC(=O)Cn1cnc2c(-c3ccc(F)cc3)nsc2c1=O | i | -1
CC1CCN(c2nc(Cl)nc3ccccc23)CC1 | i | 0.72
COc1ccc(Nc2nc(C(=O)NCc3ccc(C)cc3)cc3occc23)cc1 | i | -0.17
O=c1ccc(-c2ccc3c(c2)OCO3)nn1CCc1nc(-c2ccc(F)cc2)no1 | i | 0.39
Cc1nn(-c2ccccc2)c(N2CCC(C(=O)NCc3ccccc3)CC2)c1-n1c(C)ccc1C | i | -0.53
COc1ccc(-c2nc(CSc3nc(C(F)(F)F)cc(=O)[nH]3)c(C)o2)c(OC)c1 | i | -0.21
CCCCN(CC)c1nc(C)nc2c1c(C)cn2-c1c(C)cc(C)cc1C | i | 1.2
O=C(CCS(=O)(=O)c1ccc(Cl)cc1)Nc1nc(-c2ccccn2)cs1 | i | 0.97
O=S(=O)(c1cccn2c(SCc3ccccc3F)nnc12)N1CCCC1 | i | -0.67
COC(=O)c1ccccc1NC(=O)N1CCN(c2nnc(C)c3c(C)n(-c4ccccc4)nc23)CC1 | i | -1.2
CC1Cc2ccccc2N1S(=O)(=O)c1ccc2c(c1)c(=O)n(CCC(=O)N1CCCC1)c(=O)n2C (stereo unspecified) | i | -0.45
CCOC(=O)c1c(C)[nH]c(C(=O)N2CCCC(C(=O)NCCN3CCN(CC)CC3)C2)c1C (stereo unspecified) | i | -1.7
COc1cc(CNC(=O)c2ccc3cnn(Cc4cccc(Cl)c4)c3c2)cc(OC)c1 | i | 0.71
NS(=O)(=O)c1ccc(CCNC(=O)c2nc(CS(=O)(=O)c3ccccc3)no2)cc1 | i | -0.42
CCS(=O)(=O)N1CCCc2ccc(NC(=O)CN3C(=O)c4ccccc4C3=O)cc21 | i | -0.96
CCc1ccc(NC(=O)COc2nc(CC)nc3ccccc23)cc1 | i | 1.4
O=C(NCCN1CCCc2ccccc21)c1c(O)c2c3c(sc2[nH]c1=O)CCCC3 | i | 0.01
COc1ccc(S(=O)(=O)Nc2cc3c(cc2N2CCOCC2)n(C)c(=O)n3C)cc1 | i | 1.2
O=C(CSc1nc(=O)n(C2CCS(=O)(=O)C2)c2c1CCC2)c1ccc(Br)cc1 (stereo unspecified) | i | 0.62
CC(C)c1cc(C2CCCN2C(=O)c2cccs2)no1 (stereo unspecified) | i | -0.25
CCOC(=O)C1CCN(C(=O)CN2CCSc3ccccc32)CC1 | i | 1.4
COc1ccc(NC(=O)CC2CCN(S(=O)(=O)c3ccc4c(c3)oc(=O)n4C)CC2)cc1OC | i | 0.3
O=S(=O)(c1cn(Cc2noc(-c3cccc(Br)c3)n2)cn1)N1CCOCC1 | i | 0.49
CCCS(=O)(=O)c1nc2ccc(NS(=O)(=O)c3cc(F)ccc3F)cc2s1 | i | -0.78
Cc1cccc(-c2nn3c(=O)cc(N4CCN(C(=O)Nc5ccccc5Cl)CC4)nc3s2)c1 | i | -0.19

Looked up by compound from the list above:
SMILES | Choline anaer gr | Choline anaer gr early
COc1ccc(S(=O)(=O)Nc2cc3c(cc2N2CCOCC2)n(C)c(=O)n3C)cc1 | i | 1.2
CCCS(=O)(=O)c1nc2ccc(NS(=O)(=O)c3cc(F)ccc3F)cc2s1 | i | -0.78
NS(=O)(=O)c1ccc(CCNC(=O)c2nc(CS(=O)(=O)c3ccccc3)no2)cc1 | i | -0.42
COc1ccc(NC(=O)CC2CCN(S(=O)(=O)c3ccc4c(c3)oc(=O)n4C)CC2)cc1OC | i | 0.3
CCOC(=O)C1CCN(C(=O)CN2CCSc3ccccc32)CC1 | i | 1.4

Following part
SMILES | Choline anaer gr | Choline anaer gr early
CCOC(=O)Cc1c(O)c2ccccc2[nH]c1=O | i | -0.6
COc1ccc2c(c1)c(CC(=O)OCC(=O)O)c(C)n2C(=O)c1ccc(Cl)cc1 | i | 0.79&-0.26
Cc1ccc(Sc2cc3c(cc2NS(=O)(=O)c2ccc(F)cc2)n(C)c(=O)n3C)cc1 | i | 1
Cn1nnc2c(Nc3ccc(F)c(F)c3)ncnc21 | i | -1.2
CCNC(=O)CN1C(=O)C(C)(C)c2cc(S(=O)(=O)N3CCCCC3)ccc21 | i | -0.41
Cc1ccc(S(=O)(=O)N(Cc2c(F)cccc2Cl)c2nc3nc(C)c(Cl)c(C)n3n2)cc1 | i | 0.24
CCOc1ccc(-c2csc(NC(=O)CS(=O)(=O)c3ccc(Cl)cc3)n2)cc1 | i | -0.04
O=C(c1cccc(Br)c1)N1CCN(c2cc(=O)n3nc(-c4ccccc4)sc3n2)CC1 | i | 1.1
O=C(CSc1nc2ccccc2c2nc(CCc3c[nH]c4ccccc34)nn12)c1ccc(F)cc1 | i | 2.2
O=C(COc1ncnc2onc(-c3ccc(F)cc3)c12)NCc1ccc(F)cc1 | i | 0.37
CCOC(=O)c1ccc(NC(=O)CN2CC(=O)N3CCCC3C2=O)cc1 (stereo unspecified) | i | 1.3
CCN1CCN(c2ncnc3sc(C(=O)NCCc4c[nH]c5ccc(C)cc45)c(C)c23)CC1 | i | -0.26
CCCCNC(=O)NS(=O)(=O)c1ccc(C)cc1 | i | -0.03&-1.1&-0.29&0.69&0.45
Cc1ccc(-c2nn3c(=O)cc(CNC(=O)Nc4ccc5c(c4)OCO5)nc3s2)cc1 | i | -0.58
O=C(COc1cccc(-c2nc(-c3ccccc3)no2)c1)NC1CCCCC1 | i | -0.74

These rows are one share of the data. The share of hits here may be higher or lower than overall.
